Compound activity as filed in PubChem BioAssay.
eIF4H inh: inhibitors of RNA binding by human eIF4H. Q15056. eIF4H fluorescence polarization binding assay. inhibition, % at 35 µM. hit rate 0.94% among 290,000. AID 2012;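 active = 50% or more with normal probe brightness, or confirmed in later tests; about a fifth of its hits are not listed in these tables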;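 note: calls also rest on retests at 20 µM and on dose response follow-up; 0% = protein and probe with vehicle and 100% = probe without protein; strong numbers were not always called active; many hits fall short of the cut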
PABP FP inh: blocks human PABP binding to poly(A) RNA. P11940. fluorescence polarization. inhibition, % at 35 µM. hit rate 1% among 290,000. AID 2014;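 active = 50% or more with normal probe brightness, or confirmed in later tests; about a fifth of its hits are not listed in these tables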;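 note: calls also rest on retests at 20 µM and on dose response follow-up; controls were probe without protein and protein plus probe with vehicle; some compounds called inactive have numbers as strong as hits; many hits fall short of the cut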
CSC inhib: cancer stem cell inhibition | cancer stem cell-like cells viability, luminescence | inhibition, % at 7.5 µM | hit rate 1.1% among 300,000;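 active = mean at 75% or more and at least half the replicates too; tested in HMLE shEcad cells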;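 note: 0% = median of negative and 100% = median of positive control wells; the first replicate is given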
Rce1 inhib: yeast Ras-converting enzyme inhibition; hit rate 0.27% among 290,000; Q03530; AID 2563; calls only; yeast membranes, quenched prenylated peptide cleavage fluorescence;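 active = fall in fluorescence gain of 50% or more versus controls, with final raw signal at or below 3038400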;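 note: plate controls were neutral control wells for no effect and wells lacking membranes for full effect; tested at 10 µM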
Target sequence (Q03530 whole entry, looked up): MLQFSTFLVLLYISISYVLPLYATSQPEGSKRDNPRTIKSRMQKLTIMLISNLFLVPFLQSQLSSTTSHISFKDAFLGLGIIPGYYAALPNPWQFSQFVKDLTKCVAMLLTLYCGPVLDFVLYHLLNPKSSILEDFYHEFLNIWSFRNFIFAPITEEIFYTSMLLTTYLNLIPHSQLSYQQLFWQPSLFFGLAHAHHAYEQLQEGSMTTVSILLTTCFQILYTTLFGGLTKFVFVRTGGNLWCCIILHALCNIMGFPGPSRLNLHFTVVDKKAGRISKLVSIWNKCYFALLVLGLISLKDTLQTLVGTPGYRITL
HIV Env fusion: inhibitors of HIV Env-mediated cell fusion; inhibition, % at 12.3 µM; HeLa-JRFL Env/CEM21 cell fusion, luciferase; AID 651610; hit rate 1.1% among 360,000;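 active = mean replicate inhibition score of at least 50 and every replicate individually at or above 50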;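 note: 0% = plate neutral controls and 100% = maraviroc near 300 nM; one replicate is shown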
Yeast UUG start: modulators of start codon recognition fidelity in yeast; S. cerevisiae UUG-firefly luciferase reporter, luminescence/redox ratio; activity score, % at 18.7 µM; hit rate 0.13% among 350,000;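 active = replicate mean at a twofold rise or more, about +100% in these data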;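 note: firefly luciferase made from a UUG start codon reports start codon fidelity; reporter light over untreated wells divided by growth signal over untreated wells; some hits fall short of that in this replicate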
MT1-MMP act inh: blocks activation of human MT1-MMP. P50281. HT1080 RFP-PRO-GFP cells, GFP/RFP ratio fluorescence, overnight; percent of plate control window, DMSO zero. GFP/RFP ratio change, % at 20 µM. hit rate 0.061% among 360,000. AID 651647;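 active = GFP/RFP ratio change of at least 30% with cell ATP level not reduced by more than half and red fluorescence within 50% of control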; note: strong numbers were not always called active
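Test system: HT1080 RFP-PRO-GFP cells; Benchmarks: DMSO and RFP-L50D-GFP cell wells; Timing: cells overnight before dosing, compound overnight, 37 °C, 5% CO2; Compound: one 20 µM compound dose with 1% DMSO; Read-out: GFP/RFP fluorescence ratio.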
MT1-MMP act inh RFP: recorded beside MT1-MMP act inh, whose call it bears; RFP signal change, %; measured here: RFP expression control read;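 0 = vehicle wells; hits needed this value within 50% of zero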
* marks the source's active call; other numbers are inactive results; i = inactive; x = no result given.

SMILES	eIF4H inh	PABP FP inh	CSC inhib	Rce1 inhib	HIV Env fusion	Yeast UUG start	MT1-MMP act inh	MT1-MMP act inh RFP
Cc1cc(OC(=O)c2cccc(Cl)c2)c([N+](=O)[O-])c(=O)[nH]1	0	8	-7	i	4	-12	-7	0
Cc1cc(C)c(S(=O)(=O)N2CCC(C(=O)NCc3ccco3)CC2)c(C)c1	3	10	-4	i	-34	-4	0	0
CCNC(=S)N1CCC(C(=O)c2ccc3c(c2)OCCO3)CC1	-14	6	-9	i	9	-18	4	1
O=C(O)c1ccc(F)c(S(=O)(=O)Nc2ccccc2)c1	-5	10	-3	i	2	-15	-2	1
COc1cccc(/C=N/n2nnnc2N)c1	2	-1	-6	x	-6	x	1	2
O=C(Nc1ccc(C(F)(F)F)cc1)C1CCN(c2cnccn2)CC1	-4	3	17	i	5	-10	1	-10
CC(C)=NN1C(c2nonc2N)=NOC1(C)C	-9	7	1	x	-1	2	8	0
CC(=O)/C(=N/Nc1ccccc1[N+](=O)[O-])N1CCCc2ccccc21	-7	0	16	i	-13	-18	7	-9
Cc1ccc(/C=N/n2cnc3sc(C)c(C)c3c2=O)o1	-11	-6	2	i	-20	x	-1	4
COC(=O)C1=C(C(=O)OC)[C@@H]2Nc3ccccc3[C@@]23C[C@@H](C(=O)OC)N(C(=O)c2ccc(Br)cc2)C3=N1	-4	1	x	i	x	x	x	x
O=C(CC(=O)c1ccccc1O)c1ccc(F)cc1	2	-1	5	i	-2	x	-12	-11
COc1ccc(S(=O)(=O)N(C)c2ccc(C(=O)Nc3cccnc3)cc2)cc1OC	-13	4	-8	i	-28	-13	-3	-5
CC(=O)N1c2ccc(S(=O)(=O)CCC(=O)O)cc2CC1C (stereo unspecified)	-4	-4	3	i	x	-19	7	4
O=C(NNC(=S)Nc1ccccc1Cl)C1CC1	-2	-5	-9	i	10	-10	0	5
CCOc1ccc(NC(=O)CSc2nc3[nH]ncc3c(=O)n2-c2ccccc2OC)cc1	0	-11	2	i	24	12	-2	-2

Reformatted as a markdown table: entries from further up
| molecule | eIF4H inh | PABP FP inh | CSC inhib | Rce1 inhib | HIV Env fusion | Yeast UUG start | MT1-MMP act inh | MT1-MMP act inh RFP |
| --- | --- | --- | --- | --- | --- | --- | --- | --- |
| O=C(Nc1ccc(C(F)(F)F)cc1)C1CCN(c2cnccn2)CC1 | -4 | 3 | 17 | i | 5 | -10 | 1 | -10 |
| CC(C)=NN1C(c2nonc2N)=NOC1(C)C | -9 | 7 | 1 | x | -1 | 2 | 8 | 0 |
| CC(=O)/C(=N/Nc1ccccc1[N+](=O)[O-])N1CCCc2ccccc21 | -7 | 0 | 16 | i | -13 | -18 | 7 | -9 |
| Cc1ccc(/C=N/n2cnc3sc(C)c(C)c3c2=O)o1 | -11 | -6 | 2 | i | -20 | x | -1 | 4 |
| COC(=O)C1=C(C(=O)OC)[C@@H]2Nc3ccccc3[C@@]23C[C@@H](C(=O)OC)N(C(=O)c2ccc(Br)cc2)C3=N1 | -4 | 1 | x | i | x | x | x | x |
| O=C(CC(=O)c1ccccc1O)c1ccc(F)cc1 | 2 | -1 | 5 | i | -2 | x | -12 | -11 |
| COc1ccc(S(=O)(=O)N(C)c2ccc(C(=O)Nc3cccnc3)cc2)cc1OC | -13 | 4 | -8 | i | -28 | -13 | -3 | -5 |

The main list resumes, repeating the 2 entries before the break.
SMILES	eIF4H inh	PABP FP inh	CSC inhib	Rce1 inhib	HIV Env fusion	Yeast UUG start	MT1-MMP act inh	MT1-MMP act inh RFP
O=C(NNC(=S)Nc1ccccc1Cl)C1CC1	-2	-5	-9	i	10	-10	0	5
CCOc1ccc(NC(=O)CSc2nc3[nH]ncc3c(=O)n2-c2ccccc2OC)cc1	0	-11	2	i	24	12	-2	-2
CC1CN(C(=O)C2CCCC2)C(C)CN1C(=O)C1CCCC1 (stereo unspecified)	-9	1	18	i	5	29	-3	1
CC(=O)N1CCN(CC(=O)Nc2sccc2C#N)CC1	11	-2	1	i	-6	x	-1	1
CCC12CN3CC(CC)(CN(C1)C31C(=O)N(C)c3ccc(C)cc31)C2=O (stereo unspecified)	5	2	-3	i	-56	-11	0	-1
COc1ccc(C(=O)c2ccc(OC)c(OC)c2)cc1OC	2	-2	-7	x	22	x	2	4
COc1cc(/C=C2\SC(=S)N(N3CCOCC3)C2=O)cc(OC)c1OC	-23	1	-7	i	22	4	15	11
CCOc1c(OC)cc(C2C(C#N)=C(N)Oc3n[nH]c(-c4ccncc4)c32)cc1OC (stereo unspecified)	-6	-5	-7	i	x	x	-1	-1
Cc1ccc(NC(=O)c2nc[nH]c2C(=O)N2CCC(C)CC2)cc1	-2	-6	12	i	-26	-8	3	-1
O=C(COC(=O)/C=C/c1ccccc1)Nc1ccccc1Br	0	6	0	i	-3	7	3	2
COC(=O)c1ccc(Sc2ccc(Cl)cc2)c(N)c1	-15	-6	-2	i	-59	-15	1	-3
CNC(=O)C1C2C=CC3(O2)C1C(=O)N(C1CC1)C3C(=O)NCc1ccc(OC)cc1 (stereo unspecified)	-8	-2	x	i	-12	-6	0	2
Cc1c(C(=O)N2CCCCC2)sc(NC(=O)C(C)C)c1C#N	14	2	-2	i	x	x	-6	-1
COC(=O)CSC1=C(C#N)C(c2ccccc2OC)C(C(=O)OC)C(=O)N1 (stereo unspecified)	-1	7	1	i	x	-10	2	6
CCC/C=C/c1ccc(CN2C(C(C)C)C(=O)N(Cc3cn(CCC4OCCCO4)nn3)CCS2(=O)=O)cc1 (stereo unspecified)	x	x	x	x	12	-4	4	-3
COc1ccc(C(CC(=O)NCc2ccccc2)Sc2n[nH]c(-c3ccccc3)n2)cc1 (stereo unspecified)	86*	54*	x	i	-16	13	-9	-8
O=C(NCc1ccccc1)Nc1cccn(Cc2ccc(F)cc2)c1=O	6	-5	-10	i	x	x	-9	-16
COc1ccc(Cl)cc1S(=O)(=O)N1CCCC(C(=O)NCCc2ccccc2)C1 (stereo unspecified)	-19	-11	-10	i	1	-10	-4	-9
CCOC(=O)C1=NN(c2ccc(F)cc2)C2=NC(C)=C(C(=O)OC)C(c3cccs3)N12 (stereo unspecified)	x	x	2	x	-76	-16	1	-5
COc1ccc(CCNC(=O)C2CCCN(S(C)(=O)=O)C2)cc1OC (stereo unspecified)	2	8	-3	i	x	-10	-3	-2
COc1ccc(S(=O)(=O)N2CCC(C(=O)N3CCCCC3)CC2)cc1	-10	6	4	i	12	-15	-1	-6
CCc1ccc(NC(=O)C2CCN(S(=O)(=O)c3c(C)noc3/C=C/N(C)C)CC2)cc1	6	7	-2	i	13	-25	-1	-4
COc1ccc(C=NCC2COc3ccccc3O2)cc1OC (stereo unspecified)	4	-16	-17	i	x	8	1	4
COc1ccc(/C=N/n2cnn(Cc3ccccc3Cl)c2=S)cc1	-14	0	2	i	-13	x	7	4
CC(C)NC(=O)NC(=O)COC(=O)C1(C)CC1(Cl)Cl (stereo unspecified)	2	11	4	i	24	x	2	4
Cc1ccc(C(=O)CSc2nnc(C)s2)cc1	0	-5	-5	i	x	x	1	-1
COc1cccc(OCc2nnc(SCC(=O)NCc3ccco3)n2CCc2ccccc2)c1	12	9	x	i	-15	32	-5	-1
CCc1c(C)nc2ncnn2c1N1CCC(C(=O)NCc2cccs2)CC1	-5	0	14	i	7	-12	0	-4
CC(C)(C)NC(=O)CSc1nc(-c2ccccc2)c(-c2ccccc2)[nH]1	-4	-1	x	i	64*	-18	19	-5
Cn1c(SCC(=O)c2ccccc2)nnc1-c1ccccn1	-6	-2	0	i	-13	-4	2	2
CN(Cc1ccccc1F)C(=O)C(Cc1ccccc1)NC(=O)c1ccccc1 (stereo unspecified)	x	x	2	i	x	x	-16	-6
O=C(CN1CCC(Cc2ccccc2)CC1)NC(=O)NCc1ccco1	-5	3	10	i	x	1	-3	-1
CCC(O)C1CCN(C(=O)c2ccc(OC3CCN(Cc4ccccn4)CC3)cc2)CC1 (stereo unspecified)	-1	-3	0	i	2	-17	-4	1
COC(=O)c1ccc(C)c(NC(=O)C2CC(=O)N(C3CCCC(C)C3C)C2)c1 (stereo unspecified)	x	x	-10	x	1	6	-5	-16
CCOc1cc(C(=O)N=c2sccn2C)cc(Br)c1OC	-14	-7	0	i	12	-11	-1	1
CCCCN(CCCC)C(=S)N/N=C/c1c(C)[nH]n(-c2ccccc2)c1=O	7	0	-1	i	x	x	4	2
COCCCn1c(SCC(=O)OC2CCCCC2)nnc1-c1cccs1	-4	-5	12	i	20	-9	11	11
Cc1cc(=O)n2c(-c3ccc(Cl)cc3)csc2n1	10	8	-1	i	0	x	0	2
Cn1cc(CN2CCC(C(O)c3cccs3)CC2)c(-c2ccccc2F)n1 (stereo unspecified)	5	-9	x	i	-18	-9	7	5
c1ccc(C[n+]2c(-c3ccccc3)csc2Nc2ccccc2)cc1	1	-1	83*	i	x	-24	-12	-24
CC(=O)O/N=C(/C)c1ncc(C(F)(F)F)cc1N1CCOCC1	-7	-1	-13	i	-31	-11	-1	1
CC[C@]1(C(=O)OC)[C@H]2C(=O)N(Cc3ccccc3)C(=O)[C@H]2[C@H]2CN=C(SCc3ccccc3)N21	x	x	x	x	94*	-26	-2	-1
COc1ccc(OC)c(NC(=O)C2CCCN(S(C)(=O)=O)C2)c1 (stereo unspecified)	-14	4	-17	i	19	-8	-3	-2
CCCC1=Nc2cc(C(=O)NCCCOC(C)C)ccc2Sc2ccccc21	1	0	66	i	-5	-1	13	-6
Fc1ccc(CSc2nnc(CN3CCOCC3)n2-c2ccccc2)c(Cl)c1	-2	1	-2	i	x	-5	-4	-4
Cc1ccc(NC(=S)N(CCCN2CCN(C)CC2)Cc2cccs2)cc1	-7	8	10	i	0	x	-4	-1
Cc1cccc(C)c1N1C(=O)CC(N(O)c2ccccc2)C1=O (stereo unspecified)	0	-11	-3	i	-107	-9	-2	2
Cc1ccc(C(=O)NNc2ncnc3ccccc23)cc1	1	-2	-7	i	-56	-22	5	-3
Cc1ccc(C)c(NC(=S)NNC(=O)c2ccc(Br)o2)c1	14	5	1	i	-70	x	1	2
C#Cc1ccc(NC(=O)C2(C)CCN2C(=O)C/C=C/c2ccccc2)cc1 (stereo unspecified)	x	x	x	x	1	-16	5	-3
FC(F)Sc1ccc(NC(=S)N2CCN(c3ccccn3)CC2)cc1	14	2	x	i	1	-19	2	-5
O=C(NCc1cccc(Cl)c1)C1CCCO1 (stereo unspecified)	-1	-9	x	i	0	-5	0	-3
COC(CNC(=O)c1coc2nc3ccccc3nc12)OC	13	-2	-4	i	3	x	-7	2
O=C(c1cc2ccccc2o1)N1CCN(CCOc2ccccc2)CC1	x	x	x	x	10	-18	3	-1
Cn1cc(SCC(=O)Nc2ccc3c(c2)OCO3)c2ccccc21	-16	7	-3	i	16	-8	0	-3
O=C(NCCCn1cccn1)C1CCC(=O)N(Cc2ccccc2F)C1 (stereo unspecified)	-12	-16	13	i	-11	-16	1	3
C/C(CCc1ccccc1)=N/NC(=O)C(=O)NCc1ccccc1	-7	-13	-6	x	5	x	4	7
CCCCOCCCNC(=O)CC(C)c1ccccc1 (stereo unspecified)	5	-2	-14	i	20	-7	-3	-1
CCOc1ccccc1N1CCN(Cc2cn[nH]c2-c2ccc(F)cc2)CC1	5	-2	-20	i	15	x	3	0
COc1ccccc1N1CCN(/N=C\c2ccc(C)o2)CC1	8	1	1	i	-91	-9	-4	1
COc1cccc(C(=O)NNC(=O)c2ccccc2-n2cccc2)c1	-11	-12	-3	i	11	-8	3	2
CN(CC(=O)Nc1cccc(F)c1)C(=O)C1=COCCO1	x	x	x	i	x	-1	3	5
COc1ccccc1NC(=O)CN(C)S(=O)(=O)c1ccc2c(c1)CCC(=O)N2	-5	-4	-1	i	1	-6	0	5
O=C(Cn1c(=O)oc2ccccc21)Nc1ccccc1C(F)(F)F	-4	-8	-7	i	4	-11	0	4
Cc1ccc(C(=O)Nc2ccc(N3CCOCC3)nc2)cc1	14	19	-2	i	-28	-19	2	2
